High-throughput results deposited in PubChem BioAssay by National Center for Advancing Translational Sciences (NCATS).
RE007 growth inh – less growth of the S. pombe RE007 Vpr strain. S. pombe RE007 Vpr strain, BacTiter-Glo ATP luminescence, 24 h; control for the full effect not named in the record. Potency, µM (top dose mostly 92.2 µM), for the others: top-dose activity change, negative = less growth. actives 0.21% (n = 360,000). AID 651644; active = well fitted falling curve with a large enough effect; inconclusive = small, poorly fitted or top-dose-only effect; inactive = no such curve, though single readings can be large or run the other way;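 further: on the % scale 0 is the no-effect control and ±100 the full control effect; nearly all actives have a fitted effect of over 50% in size; the assay follows cell death caused by Vpr and the record does not say whether a fall means rescue or toxicity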
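Fission yeast strain RE007, carrying one chromosomally integrated HIV-1 vpr copy, was seeded at OD 0.01 in PMG+AL medium with 23 nL pinned compound. After 24 h at 30 °C and 99% humidity, viability was read by BacTiter-Glo luminescence.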
Cruzain noTriton – blocks cruzain activity in detergent-free assay; actives 2.3% (n = 200,000); AID 1476; P25779; purified cruzain, Z-FR-AMC fluorescence, no detergent; Potency, µM, without a hit: max response, negative = inhibition, most hits filed as inhibitors;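 further: plate controls were enzyme without inhibitor for no effect and buffer without enzyme for full effect; nearly all actives have a fitted effect of over 40% in size; top concentration of the series not given in the record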
Target sequence (P25779 123-467 limits assumed): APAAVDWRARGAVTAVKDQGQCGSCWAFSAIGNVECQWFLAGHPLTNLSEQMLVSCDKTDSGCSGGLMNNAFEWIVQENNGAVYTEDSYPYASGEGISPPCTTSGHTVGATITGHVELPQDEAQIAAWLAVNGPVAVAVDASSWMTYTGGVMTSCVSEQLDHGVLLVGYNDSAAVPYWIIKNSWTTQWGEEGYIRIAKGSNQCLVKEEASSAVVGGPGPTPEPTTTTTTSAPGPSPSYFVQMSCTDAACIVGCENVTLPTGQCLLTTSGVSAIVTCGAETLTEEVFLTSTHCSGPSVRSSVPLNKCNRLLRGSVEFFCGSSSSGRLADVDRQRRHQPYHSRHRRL
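Purified cruzain at 1.5 nM, pre-incubated 15 min with compound at room temperature in 100 mM sodium acetate pH 5.5, 5 mM DTT, 0.00005% Triton X-100. Reaction started with 2 uM Z-FR-AMC; AMC fluorescence increase over 60 s gives rate.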
NS1 function inh – influenza NS1 inhibition | S. cerevisiae slowed by influenza A NS1, growth recovery by OD600 | Potency, µM (highest dose often 46.1 µM), for the others: top-dose activity, positive = more growth | actives 0.4% (n = 270,000) | AID 2326; active means well fitted rising curve with a large enough effect; inconclusive means small, poorly fitted or top-dose-only effect; inactive means no such curve, though single readings can be large or run the other way; further: nearly all actives have a fitted effect of over 50% in size
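In this qHTS, NS1 from influenza A is expressed in budding yeast, where it slows growth. Cells are switched from glucose to 2% galactose medium (pH 6.0, -URA), treated with compound, and growth recovery is read at OD600.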
2A StopGo – lowers the luciferase signal of an FMDV 2A StopGo reporter; human cells with a luciferase reporter of 2A StopGo recoding; control for the full effect not named in the record; Potency, µM (series often up to 57.9 µM), inactives show at the top dose signal change, negative = less light; actives 1.2% (n = 410,000); active = well fitted falling curve with a large enough effect; inconclusive = small, poorly fitted or top-dose-only effect; inactive = no such curve, though single readings can be large or run the other way; tested in HEK293T cells; further: on the % scale 0 is the no-effect control and ±100 the full control effect; nearly all actives have a fitted effect of over 45% in size; luciferase light after 4 h
LASV entry inh – blocks Lassa virus binding to or entry into cells; Potency, µM (highest dose often 37.9 µM), for inactives: at the highest dose activity change, negative = inhibition, hits mostly inhibitors; actives 1.2% (n = 300,000); Lassa virus pseudotype entry inhibition, cell reporter; control for the full effect not named in the record; active means well fitted inhibition curve with a large enough effect; inconclusive means small, poorly fitted or top-dose-only effect, or effect the other way; inactive means flat fitted curve, though single readings scatter; tested in HEK293 cells; further: on the % scale 0 is the no-effect control and ±100 the full control effect; nearly all actives have a fitted effect of over 50% in size; luciferase read-out
MARV entry inh – blocks Marburg virus binding to or entry into cells; Potency, µM (highest dose often 37.8 µM), without a hit: at the highest dose activity change, negative = inhibition, hits mostly inhibitors; actives 1.8% (n = 300,000); Marburg virus pseudotyped entry inhibition, cell reporter; control for the full effect not named in the record; about a third of the inactives were read at about 46 µM; active = well fitted inhibition curve with a large enough effect; inconclusive = small, poorly fitted or top-dose-only effect, or effect the other way; inactive = flat fitted curve, though single readings scatter; tested in HEK293 cells; about a fifth of its hits are not listed in these tables; further: on the % scale 0 is the no-effect control and ±100 the full control effect; luciferase read-out
SARS PLpro yeast – inhibitors of SARS-CoV papain-like protease in yeast. S. cerevisiae expressing SARS-CoV PLpro, growth rescue; control for the full effect not named in the record. Potency, µM (highest dose often 32.9 µM), without a hit: at the highest dose activity, positive = growth rescue. actives 0.19% (n = 330,000). AID 485353; active means well fitted rising curve with a large enough effect; inconclusive means small, poorly fitted or top-dose-only effect; inactive means no such curve, though single readings can be large or run the other way; further: 0% is about no effect; nearly all actives have a fitted effect of over 55% in size; growth read by luminescence after 48 h
Cruzain inh Det – blocks cruzain activity in presence of Triton detergent; P25779; purified cruzain, Z-FR-AMC fluorescence, 0.01% Triton; Potency, µM, for the others: max response, negative = inhibition, hits mostly inhibitors; actives 0.43% (n = 200,000); AID 1478;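 further: plate controls were neutral wells for no effect and buffer without enzyme for full effect; nearly all actives have a fitted effect of over 40% in size; top concentration of the series not given in the record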
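Enzyme 1.5 nM, Z-FR-AMC 2 uM, NaOAc 100 mM pH 5.5, DTT 5 mM, Triton X-100 0.01%; 15 min RT compound preincubation; kinetic ex360/em450, 60 s delta.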
* marks the source's active call; other numbers are inactive results; ? = inconclusive; · = not tested or not shown; & = joins results of further samples; [ ] = another dose, or the depositor's remark. Unless noted, the call rests on the fitted dose curve; in most records, active means well fitted curve in the direction sought with a large enough effect; inconclusive means small, poorly fitted or top-dose-only effect, or another doubt; inactive means no such curve, though single readings can be large; an effect the other way counts as inactive or inconclusive. Potency means the concentration at half of the fitted maximal effect. The order is random (roughly 4.8% active in at least one column).

SMILES	RE007 growth inh	Cruzain noTriton	NS1 function inh	2A StopGo	LASV entry inh	MARV entry inh	SARS PLpro yeast	Cruzain inh Det
O=[N+]([O-])c1ccc(CSc2nnc(Cc3ccccc3)n2-c2ccc(F)cc2)cc1	16%	4%	-12%	-30%	?	?	-27%	-6.7%
CN(C(=O)CN1C(=O)S/C(=C\c2cccc(Cl)c2)C1=O)C1CCS(=O)(=O)C1 (stereo not drawn)	12%	·	19%	-25%	·	·	-1%	·
CCCn1c2ccccc2c2cnn(CC(=O)NC3CCCCC3C)c(=O)c21 (stereo not drawn)	1%	·	6%	-16%	·	·	3%	·
Cc1csc2c(SCC(=O)NNS(=O)(=O)c3cccc(C(F)(F)F)c3)ncnc12	1%	·	4%	14%	·	·	1%	·
CCOC(=O)C1(Cc2cccc(Cl)c2)CCCN(C(=O)c2c(CC)noc2C)C1 (stereo not drawn)	8%	·	-12%	0%	·	·	6%	·
CCOC(=O)c1c(C)nc2c(c1-c1ccc(OC)c(OC)c1)C(=O)c1ccccc1-2	4%	?	10%	·	-3%	-5%	1%	-5.0%
CCOc1ccc(C(=O)c2cn(Cc3ccccc3OC)c3cc4c(cc3c2=O)OCCO4)cc1	·	9%	·	-20%	-10%[46.1 µM]	-5%[46.1 µM]	·	-1.9%
CCOC(=O)n1c(=O)n(Cc2cccc(F)c2)c2ccccc21	5%	·	·	-8%	16%	5%[46.1 µM]	-5%	·
O=C(Cc1ccccc1)Nc1sc2c(c1C(=O)Nc1ccccc1Cl)CCC2	·	5%	·	-9%	-3%[46.1 µM]	·	·	-2.1%
O=S(=O)(c1ccc(F)cc1)N1CCCNCC1	-14%	·	0%	-20%	·	·	1%	·
C/C(=N\OCC(=O)Nc1ccc2c(c1)OCCO2)c1ccc2c(c1)OCCO2	14%	-4%	-15%	-15%	-17%	8%	-5%	-3.4%
CN1Cc2cc(C(=O)c3cc(Cl)cc(CSc4ncccn4)c3O)cnc2NC1=O	·	2%	6%	·	·	5%	-9%	3.0%
Cc1cccc(C(=O)NNC(=O)c2ccccc2[N+](=O)[O-])c1	23%	·	17%	19%	·	·	5%	·
CCOC(=O)C1=C(C)NC(C)=C(C(=O)OCC)C1C(=O)OCC(=O)N(C)C1CCS(=O)(=O)C1 (stereo not drawn)	14%	·	·	1%	-3%	5%[46.1 µM]	-4%	·
CC(C)CNC(=O)COC(=O)c1ccc(Cl)c(S(N)(=O)=O)c1	36%	-20%	1%	6%	7%	-11%[46.1 µM]	0%	5.4%
Cc1ccc(N2CCN(C(=O)c3ccc(Nc4nc5ccccc5n5nnnc45)cc3)CC2)c(C)c1	·	-1%	·	-12%	9%[46.1 µM]	5%[46.1 µM]	·	-2.3%
COc1ccc(N2C(=O)CC(Nc3ccc(N4CCOCC4)cc3)C2=O)c(OC)c1 (stereo not drawn)	0%	1%	?	15%	-1%	?	-1%	-0.9%
COc1cc2c(cc1OC)C(c1ccc(C)o1)CC(=O)N2 (stereo not drawn)	-5%	-2%	?	-1%	·	-2%	0%	-0.2%
Cc1cc2c(c(=O)o1)C(c1cccs1)C(C#N)=C(N)O2 (stereo not drawn)	11%	5%	-13%	-24%	-6%	29%	26%	-3.7%
O=c1[nH]c(NC2CCCCC2)nnc1Cc1ccccc1	10%	?	-4%	30%	9%	0%	4%	0.2%
O=C(CNC(=O)c1ccccc1)OCc1cc(=O)n2nc(C3CC3)sc2n1	·	-10%	·	2%	6%[46.1 µM]	·	·	-3.1%
Cc1c(CCOC(=O)CC23CC4CC(CC(C4)C2)C3)sc[n+]1CC(=O)c1ccccc1	2%	·	6%	?	·	·	0%	·
COc1cccc(CCN2C(=O)C(=O)N([C@@H](CNCc3ccccc3)Cc3ccccc3F)C[C@@H]2C(C)(C)C)c1	6%	·	3%	0%	·	·	2%	·
COc1cc(C(=O)Nc2ccc3c(c2)ncn3C(C)(C)C)cc(OC)c1OC	-3%	·	-21%	11%	·	·	-10%	·
CCCCc1ccc(N2C(=O)[C@@H]3C(CC(N)=O)NC4(C(=O)Nc5ccc(F)cc54)[C@@H]3C2=O)cc1 (stereo partly drawn)	-20%	?	15%	-7%	-9%	30%	-15%	-4.0%
Next part:
SMILES	RE007 growth inh	Cruzain noTriton	NS1 function inh	2A StopGo	LASV entry inh	MARV entry inh	SARS PLpro yeast	Cruzain inh Det
COc1ccc(C(=O)Nc2cccc(C(=O)N/N=C/c3ccc(OC)cc3OC)c2)cc1	8%	·	-10%	14%	-9%[46.1 µM]	-24%[46.1 µM]	-4%	·
Clc1ccccc1-c1nnc(-c2cccnc2)o1	?	·	-11%	11%	·	·	1%	·
O=C(Nc1cc(Cl)ccc1Cl)c1ccc(-c2ccccc2)cc1	-10%	-17%	-9%	9%	14%	?	14%	-5.7%
CCOC(=O)c1ccc(N/C=C/C(=O)c2ccco2)cc1	-3%	30%	-69%	·	?	?	-8%	-2.2%
O=C(CSc1cccs1)Nc1cccc2ccccc12	6%	0%	-4%	96%[activator]	19%	1%	13%	-1.6%
O=C(CCC(=O)c1ccccc1)NCCOc1ccccc1	7%	·	2%	9%	7%[46.1 µM]	?	0%	·
Cc1ccc2c(C)c(C(=O)Nc3nnc(C)s3)oc2c1	4%	-18%	0%	30%[activator]	-9%	8%	1%	-0.5%
CC1(C)CC(=O)C2=C(C1)N(CCN1CCOCC1)C1=C(C(=O)CC(C)(C)C1)C2c1cccc(F)c1	18%	27%	-10%	-4%	8%	1%	20%	-5.8%
COc1ccc(C)cc1NC(=O)C1CCCN(S(=O)(=O)c2cccs2)C1 (stereo not drawn)	2%	·	3%	-11%	14%	2%[46.1 µM]	0%	·
Cc1cc(NC(=O)CSc2nnc(-c3ccncc3)n2Cc2ccccc2)n(-c2ccccc2)n1	24%	·	-3%	-16%	·	·	-2%	·
Cc1ccccc1NC(=O)C(C)OC(=O)CCC(=O)N(CC(C)C)c1c(N)n(CC(C)C)c(=O)[nH]c1=O (stereo not drawn)	2%	·	·	-18%	13%	-22%[46.1 µM]	·	·
COc1ccccc1-c1cc(C(F)(F)F)nc(S(=O)(=O)CCCC(=O)Nc2ccc(F)cc2F)n1	·	8%	·	?	?	2%[46.1 µM]	·	-1.6%
NNC(=O)c1nn(-c2ccc(Cl)cc2)cc1O	-21%	·	11%	-2%	·	·	4%	·
CN1CCN(/C=N/C2=C(C#N)C(c3ccccc3)C3=C(CC(C)(C)CC3=O)O2)CC1 (stereo not drawn)	12%	7%	10%	26%	-9%	1%	2%	1.6%
COc1ccccc1-n1c(CNC(=O)c2ccc(S(=O)(=O)N3CCOCC3)cc2)n[nH]c1=S	11%	4%	2%	·	9%	0%&-11%	11%	2.2%
CC(=O)Oc1ccc2c(=O)c(Oc3ccccc3)c(C)oc2c1OC(C)=O	6%	-4%	10%	-24%	0%	?	-6%	-4.9%
CCc1ccc(OCC(=O)N(CC)CC)cc1	66%	·	·	5%	26%[46.1 µM]	?	0%	·
COc1ccc(C(CNC(=O)CSc2ccccc2F)N2CCOCC2)cc1 (stereo not drawn)	-13%	·	·	-10%	-4%	-17%[46.1 µM]	·	·
O=C(CCCSc1nc2sc3c(c2c(=O)[nH]1)CCC3)NCCO	10%	6%	-3%	-10%	6%	10%	2%	-1.9%
CCC(C)(C)NC(=O)C1CCC(CNS(=O)(=O)c2cccc3nsnc23)CC1 (stereo not drawn)	0%	·	-2%	-9%	·	·	-5%	·
Cc1ccnc2c1ccc1ccccc12	-12%	·	-10%	13%	·	·	4%	·
CSc1ccc(CNc2ccc(Cl)cc2)cc1	-3%	1%	0%	·	-11%	6%	-3%	-10.0%
Cc1ccc(-c2csc(NC(=O)C3CC=CCC3C(=O)O)c2C(=O)OC(C)C)cc1 (stereo not drawn)	43%	?	?	-5%	-3%	21%	0%	-19%
COc1cccc(-c2nnn(CC(=O)N3CCC(C)CC3)n2)c1	-2%	·	8%	50%[activator]	·	·	8%	·
CC1CC(=O)N(C)c2cc([N+](=O)[O-])ccc2N1 (stereo not drawn)	-9%	·	·	24%	15%[46.1 µM]	6%[46.1 µM]	2%	·
Later entries.
SMILES	RE007 growth inh	Cruzain noTriton	NS1 function inh	2A StopGo	LASV entry inh	MARV entry inh	SARS PLpro yeast	Cruzain inh Det
CC(NC(=O)COc1ccccc1)C(=O)NC1=NCCS1 (stereo not drawn)	-11%	-14%	2%	·	2%	5%	3%	-1.9%
Cc1ccc(C(=O)OCC(=O)NNC(=O)c2ccc([N+](=O)[O-])cc2)o1	-6%	·	·	-10%	6%	?	-3%	·
CCOC(=O)c1sc2nc(N3CCOCC3)c3c(c2c1N)CCCC3	-9%	15%	-8%	-28%	?	2%[46.1 µM]	1%	-26%
CCS(=O)(=O)N1CCc2cc(C(=O)NCc3ccccc3OC)ccc21	·	7%	·	29%	25%[46.1 µM]	-22%[46.1 µM]	·	-3.9%
CC(=O)Nc1ccc(NC(=O)Cn2c(=O)n(-c3ccc(F)cc3)c(=O)c3oc4ccccc4c32)cc1	-12%	·	·	-15%	?	?	5%	·
CCOC(=O)CNC(=O)c1cc2c(=O)[nH]c3ccc(C)cc3c2s1	5%	·	2%	-5%	·	·	0%	·
CN(C)S(=O)(=O)c1cccc(NC(=S)N/N=C/c2ccco2)c1	6%	·	12%	9%	·	·	0%	·
CCN(CC)S(=O)(=O)c1ccc2nc(SC)sc2c1	19%	-3%	-99%	13%	-4%	11%	-4%	0.1%
COc1ccc(CCNC(=O)c2ccc3c(c2)N(Cc2ccccc2F)C(=O)c2ccccc2S3(=O)=O)cc1OC	·	7%	·	-13%	-18%[46.1 µM]	-15%[46.1 µM]	·	-0.3%
Cn1cccc1/C=N/n1c(-c2ccccc2)n[nH]c1=S	18%	3%	6%	-6%	?	?	0%	-1.7%
COc1ccccc1N1CCN(S(=O)(=O)c2cn(C)c(=O)n(C)c2=O)CC1	2%	14%	-7%	-12%	·	·	5%	2.7%
